# Bioassay records as filed in PubChem BioAssay.
# Mtb hypoxia rep = Mtb hypoxia fluorescent reporter inhibition; M. tuberculosis hypoxia-regulated fluorescent reporter, fluorescence; fluorescence inhibition, % (concentration not given with the values); actives 0.1% (n = 300,000);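 active = 35 to 45% if threefold the growth effect, above 45% if 1.5-fold the growth effect; inactive = the rest, general growth blockers included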;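 also: wells of about 50 µL received 100 nL stock; 0% = vehicle wells and 100% = reference inhibitor wells; whole bacteria with a GFP reporter of the hypoxia response; strong numbers were not always called active; many hits fall short of the cut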
# BJeLR lethal = BJeLR cell viability loss; BJeLR (HRASV12) viability, CellTiter-Glo ATP luminescence, 48 h; reference of the scale not given here; inhibition, % (test concentration not listed); actives 0.17% (n = 300,000);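 active = replicate mean above 50%; inconclusive = above 50% but judged a plate artefact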;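 also: 50 nL library stock added to about 25 µL; numbers are from one replicate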
# PrP UTR inh = suppresses PrP 5' UTR mRNA reporter expression; cell-based PrP 5' UTR mRNA reporter, plate reader; inhibition, % (no concentration beside the values); actives 0.35% (n = 340,000); AID 488862;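 active = every replicate at 50% or more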;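 also: 0 = median of the neutral control wells; tested in H4 reporter cells; numbers are from one replicate; inactives centre near -14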
# Sa ugtP lethal = compounds lethal to S. aureus RN4220 ugtP deletion mutant; OD600 growth, 16 h; some inactives read as strong as hits; growth inhibition, % (test concentration not listed); actives 0.54% (n = 330,000);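 active = z-score under -3 and OD600 up to 0.15 on both plates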;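 also: plate controls were untreated wells for no effect and antibiotic for full effect; wells of about 80 µL received 100 nL stock; the first replicate is given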
# Autofluor counter = flagged as autofluorescent in microsphere protease counterscreen; compound autofluorescence counterscreen, microsphere flow cytometry; stronger effect = higher value; fluorescence intensity (no concentration beside the values); actives 3.1% (n = 360,000);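 active = at least 3 SD above the mean of all compounds, about 16000 in these data; inconclusive = too few beads counted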;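 also: 100 nL of 1 mM stock went into each well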
# RN4220 kill = S. aureus RN4220 growth inhibition | inhibition, % (no concentration beside the values) | AID 1259311 | OD600, 16 h | actives 0.33% (n = 330,000);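 active = z-score of -3 or lower and OD600 up to 0.18 on both plates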;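 also: plate controls were untreated cells for no effect and reference antibiotic for full effect; stock transfer was 100 nL into about 80 µL; one replicate is shown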
# Mtb hypoxia rep growth = further read-out of Mtb hypoxia rep, marked with its call; growth inhibition, %; measured here: M. tuberculosis growth (absorbance);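 0% = vehicle and 100% = reference antibiotic; read after six days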
# Numbers without * were called inactive; ? = inconclusive; . = no result given.
no. | canonical_smiles | Mtb hypoxia rep | Mtb hypoxia rep growth | BJeLR lethal | PrP UTR inh | Sa ugtP lethal | Autofluor counter | RN4220 kill
1 | Cc1cc(C)c2nc(NC(=O)C3CC(=O)N(Cc4ccco4)C3)sc2c1 (stereo not drawn) | 15 | 3 | . | -25 | 4 | 3162 | -6.5
2 | CCn1cc(CN2CCC(C(=O)Nc3ccc(Oc4ccccc4F)cc3)CC2)c(C)n1 | 1 | 12 | -2 | 5 | -11 | 6584 | -6.6
3 | Cn1c(SCC(=O)Nc2ccccc2-c2ccccc2)nnc1-c1ccco1 | -3 | 7 | -2 | -3 | 1 | 16441* | -2.6
4 | COc1ccc(N(CC(=O)NC2CCCCC2)S(=O)(=O)c2c(C)[nH]c(=O)[nH]c2=O)cc1 | -2 | 0 | 11 | -20 | 5 | 5877 | 0.7
5 | O=C(COC(=O)C=Cc1ccccc1)Nc1cc(C(F)(F)F)ccc1N1CCOCC1 | 9 | -6 | . | . | -9 | . | 7.4
6 | COc1ccccc1C=NNC(=O)CC(=O)NCCc1ccccc1 | 7 | -2 | . | . | 7 | . | 4.8
7 | CCCOc1ccc(S(=O)(=O)Nc2ccccn2)c2ccccc12 | 4 | -3 | 1 | -15 | 4 | 3068 | 1.8
8 | COc1ccc(OC)c(NC(=O)CSc2nnc(CNC(=O)c3cc(OC)c(OC)c(OC)c3)o2)c1 | 1 | -4 | -6 | 1 | 3 | 6185 | -3.1
9 | CC(C)C(=O)N1CCC2(CC1)Oc1ccc(Cl)cc1C(=O)C21CC(c2ccc(Cl)cc2)=NO1 (stereo not drawn) | 1 | 7 | 17 | 4 | -18 | 2813 | 18
10 | O=C(CCCN1C(=O)c2cccc3cccc(c23)C1=O)N1CCN(Cc2ccc3c(c2)OCO3)CC1 | 5 | 6 | 1 | -20 | 2 | 4262 | 1.7
11 | COc1cccc(C=NNc2ccc(Cl)nn2)c1 | 17 | 5 | . | . | -2 | . | 5.7
12 | Cc1ccc([C@H]2C(C(=O)O)=CC[C@@H](c3ccc(Cl)c(Cl)c3)N2S(=O)(=O)c2ccc(C)cc2)cc1 | -3 | 4 | . | -20 | 53 | 3487 | 40
13 | CC(=C/c1ccco1)/C=N/NC(=O)Cc1cccn1C | . | . | -4 | -29 | . | 2308 | .
14 | Cc1cccc(-n2c(Cc3cc(=O)[nH]c(=O)[nH]3)nnc2SCC(=O)N2CCCCC2)c1 | . | . | -6 | -14 | . | 5729 | .
15 | Cc1ccc(N2CCN(C(=O)c3ccccc3NC(=O)c3ccccc3C(=O)O)CC2)cc1 | 0 | 3 | 7 | 2 | 0 | 2431 | 1.7
16 | CC1C[C@@]2(NC(=O)NC2=O)C(C)CN1C (stereo partly drawn) | 8 | 15 | -2 | -13 | -3 | 3310 | 2.3

# Quoted from the listing:
# Mtb hypoxia rep result of entry 16 → 8
# RN4220 kill result of entry 15 → 1.7
# Autofluor counter result of entry 13 → 2308
# Mtb hypoxia rep result of entry 11 → 17
# Sa ugtP lethal result of entry 12 → 53

# Next part:
no. | canonical_smiles | Mtb hypoxia rep | Mtb hypoxia rep growth | BJeLR lethal | PrP UTR inh | Sa ugtP lethal | Autofluor counter | RN4220 kill
17 | Cn1c([N+](=O)[O-])cnc1N1CCN(c2nncs2)C1=O | 12 | 3 | -5 | -38 | 5 | 3581 | 8.2
18 | CC(=NNC(=S)Nc1cc(S(=O)(=O)N2CCOCC2)ccc1Cl)c1ccc(N2CCOCC2)cc1 | -4 | -6 | . | . | 3 | . | 3.6
19 | CC1=CCC(C(=O)O)C(C(=O)NC2CCCCC2)C1 (stereo not drawn) | 8 | -5 | -3 | -23 | 2 | 6105 | 4.6
20 | CCN(C(=O)Cn1c(=O)oc2cc(S(=O)(=O)N3CCOCC3)ccc21)c1ccccc1 | 12 | 2 | 2 | 4 | 14 | . | 0.2
21 | O=C(COc1cc2oc(=O)cc(-c3ccccc3)c2cc1Cl)NC(Cc1c[nH]c2ccc(O)cc12)C(=O)O (stereo not drawn) | . | . | -9 | -10 | 1 | 3955 | 3.5
22 | CCCCNS(=O)(=O)c1ccc2nc(SCC(=O)N3CC(C)OC(C)C3)[nH]c2c1 (stereo not drawn) | 13 | 5 | 8 | -3 | 7 | 2438 | 8.3
23 | Nc1c(Cl)ncnc1N/N=C/c1cccc(O)c1 | . | . | 1 | -18 | . | 4252 | .
24 | CC(C)Sc1nc2c(c(=O)n1-c1ccc(F)cc1)SCC2 | 16 | 6 | 5 | -19 | 4 | 8932 | 3.1

# Random excerpt: six compounds from above, in no set order.
no. | canonical_smiles | Mtb hypoxia rep | Mtb hypoxia rep growth | BJeLR lethal | PrP UTR inh | Sa ugtP lethal | Autofluor counter | RN4220 kill
12 | Cc1ccc([C@H]2C(C(=O)O)=CC[C@@H](c3ccc(Cl)c(Cl)c3)N2S(=O)(=O)c2ccc(C)cc2)cc1 | -3 | 4 | . | -20 | 53 | 3487 | 40
13 | CC(=C/c1ccco1)/C=N/NC(=O)Cc1cccn1C | . | . | -4 | -29 | . | 2308 | .
1 | Cc1cc(C)c2nc(NC(=O)C3CC(=O)N(Cc4ccco4)C3)sc2c1 (stereo not drawn) | 15 | 3 | . | -25 | 4 | 3162 | -6.5
11 | COc1cccc(C=NNc2ccc(Cl)nn2)c1 | 17 | 5 | . | . | -2 | . | 5.7
21 | O=C(COc1cc2oc(=O)cc(-c3ccccc3)c2cc1Cl)NC(Cc1c[nH]c2ccc(O)cc12)C(=O)O (stereo not drawn) | . | . | -9 | -10 | 1 | 3955 | 3.5
19 | CC1=CCC(C(=O)O)C(C(=O)NC2CCCCC2)C1 (stereo not drawn) | 8 | -5 | -3 | -23 | 2 | 6105 | 4.6

# New compounds follow:
no. | canonical_smiles | Mtb hypoxia rep | Mtb hypoxia rep growth | BJeLR lethal | PrP UTR inh | Sa ugtP lethal | Autofluor counter | RN4220 kill
25 | O=[N+]([O-])c1cccnc1Oc1ccc(F)cc1 | 4 | -2 | -4 | -20 | 2 | 4363 | 0.1
26 | O=C(Cc1ccsc1-c1ccccc1)NO | 12 | 7 | 7 | -3 | 3 | 3076 | 5.8
27 | O=C(CN1C(=O)c2ccccc2S1(=O)=O)c1ccc2c(c1)OCCCO2 | 16 | 4 | -3 | 95* | 4 | 4118 | 3.1
28 | O=S(=O)(c1ccc(-c2csc(=Nc3ccccc3)n2CCCN2CCOCC2)cc1)N1CCOCC1 | -4 | 0 | 0 | -12 | -6 | 2875 | 9.1
29 | C/C(=N\Nc1nccnc1Cl)c1ccc(O)c(C)c1 | . | . | -8 | -17 | . | 3680 | .
30 | COc1ccc(S(=O)(=O)N(CCCN2CCCC2=O)Cc2cc3c(C)cc(C)cc3[nH]c2=O)cc1 | . | . | . | -6 | -1 | 2936 | 2.3
31 | COc1ccc(NC(=O)CN(c2ccc(C)cc2)S(=O)(=O)c2c(C)nn(C)c2C)cc1OC | 5 | 9 | 1 | -29 | -3 | 22939* | 9.1
32 | NC(=O)CN1CCN(C2CC(=O)N(CCc3ccccc3)C2=O)CC1 (stereo not drawn) | 0 | 9 | -6 | -3 | 13 | 3829 | 5.4

# Next records.
# Codes: A = Mtb hypoxia rep; B = Mtb hypoxia rep growth; C = BJeLR lethal; D = PrP UTR inh; E = Sa ugtP lethal; F = Autofluor counter; G = RN4220 kill
33) CCN1CCN(C(=O)c2cc3c(s2)-c2ccccc2S(=O)(=O)C3)CC1
  A: 7; B: 13; C: 10; D: -22; E: 3; F: 4204; G: 4.2
34) COCCN1CC(C(=O)NCCc2nc(C)c(C)s2)CCC1=O (stereo not drawn)
  A: 5; B: 6; C: -3; D: -4; E: 2; F: 4470; G: 1.0
35) Cc1csc(SCCn2c(Br)nc3c2c(=O)[nH]c(=O)n3C)n1
  A: 17; B: 3; C: 10; D: -11; E: -2; F: 4405; G: 7.4
36) Cc1ncc(CN2CCN(Cc3ccc(F)cc3)C(CCO)C2)s1 (stereo not drawn)
  A: 17; B: 3; C: 2; D: -17; E: 11; F: 3681; G: 4.9
37) CCN1C(=S)SC(=O)C1=C1C=C(C)OC(C)=C1
  A: 10; B: 5; C: 1; D: -51; E: 2; F: ?; G: 6.1
38) COCCOC(=O)c1c(C)oc2ccc(OC(=O)c3c(OC)cccc3OC)cc12
  A: 3; B: 14; C: 4; D: -12; E: 22; F: 8966; G: 14
39) CC(=O)NCc1ccc(-c2csc(-c3cccs3)n2)cc1
  A: -3; B: 3; C: -4; D: -109; E: 5; F: 5679; G: -3.5
40) CC(C)c1ccc(NC2CCCN(C(=O)CCN3CCCO3)C2)cc1 (stereo not drawn)
  A: 3; B: 5; C: -1; D: 6; E: 2; F: 6066; G: 3.5
41) CCOc1ccc(CCNC(=O)c2cc(C)nc3ccccc23)cc1OCC
  A: 5; B: 4; C: 0; D: 0; E: 3; F: 5829; G: 3.2
42) O=[N+]([O-])c1cccc(NC2=NCCC2)c1
  A: 8; B: 6; C: -2; D: -13; E: 8; F: 2015; G: -1.5
43) CCOC(=O)N1CCC(NC(=O)C2CCN(C(=O)N3CC(C)Oc4ccc(C)cc43)CC2)CC1 (stereo not drawn)
  A: 6; B: 8; C: -16; D: -31; E: 2; F: 9229; G: -0.1
44) Cc1cccn2c(=O)c3c(nc12)N1CCC(Cc2ccccc2)CC1C1(C3)C(=O)N(C)C(=O)N(C)C1=O (stereo not drawn)
  A: 4; B: 13; C: -3; D: -1; E: 11; F: 8986; G: 3.1
45) CSc1ccc(C=NNC(=O)c2cccc(Cl)c2)cc1
  A: 5; B: 2; C: .; D: .; E: 5; F: .; G: 7.9
46) Clc1ccc(Oc2cccc(C=Nn3cnnc3)c2)cc1
  A: 17; B: 10; C: .; D: .; E: -6; F: .; G: -15
47) CC(=O)OC1CCC(OC(C)=O)c2c1n([O-])c(C)c(C)[n+]2=O (stereo not drawn)
  A: -4; B: -7; C: -6; D: -17; E: -2; F: 2667; G: -10
48) CCc1cccc(C)c1NC(=S)NCc1cccn1C
  A: 10; B: 8; C: -6; D: -32; E: 6; F: 2536; G: 6.5
49) CC(C#N)(Nc1ccc(Cl)cc1)c1cccnc1 (stereo not drawn)
  A: -9; B: 1; C: 5; D: -23; E: -6; F: 6694; G: 3.3
50) C[C@@H](C(=O)N[C@@H](Cc1c[nH]c2ccccc12)C(=O)O)n1nnc2ccccc2c1=O
  A: 4; B: 0; C: 1; D: -10; E: 2; F: 5115; G: 6.8
51) O=C(Nc1ccccc1)c1ccc2c(c1)OCCO2
  A: -4; B: 2; C: -1; D: -85; E: -3; F: 3011; G: 6.1
52) CCC(C)N(C(=O)COC(=O)c1nc(Cl)ccc1Cl)C1CCS(=O)(=O)C1 (stereo not drawn)
  A: -1; B: 7; C: 7; D: -24; E: 0; F: 6225; G: -0.3
53) CC(=O)c1ccc(S(=O)c2ccccc2)cc1 (stereo not drawn)
  A: 0; B: 9; C: -1; D: -11; E: -5; F: 9585; G: -1.7
54) CCN(CC(=O)Nc1ccc(OC)cc1)CC(=O)Nc1ccc(Br)cc1F
  A: 14; B: 6; C: -8; D: -11; E: 2; F: 2551; G: 2.6
55) O=C1NC2C(NC(=O)N2C2CCCCC2)N1C1CCCCC1 (stereo not drawn)
  A: 4; B: 1; C: 14; D: -9; E: -7; F: 3271; G: -16
56) CCOc1ccccc1N1CCN(C(=O)c2c(Cl)cnn2C)CC1
  A: -1; B: 0; C: -5; D: -19; E: 6; F: 6621; G: 2.6
57) CCOC(=O)N1CCC(N2C(=O)c3ccc(C(=O)Nc4ccc(OC)cc4)cc3C2=O)CC1
  A: 6; B: 3; C: 2; D: -20; E: 19; F: 6021; G: 9.2
